Rango dissoc inh = inhibitors of RanGTP-induced Rango-importin beta complex dissociation | Potency, µM (top dose mostly 46.1 µM), inactives show at the highest dose activity change, negative = inhibition | O95149+P62826 | 340,000 compounds, 0.071% hits | Biochemical FRET Rango-importin beta, RanGTP-induced dissociation; active means falling FRET ratio curve, often poorly fitted, with flat reads before Ran was added; inconclusive means other falling curves, or compound fluorescence or quenching; inactive means flat or rising ratio curve;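 further: potency means the concentration at half of the fitted maximal effect; % of control where 0% means no effect; nearly all actives have a fitted effect of over 45% in size; -100% = wells without RanGTP and RCC1; the record marks most hits as doubtful in a second field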
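Two FRET readings bracket the reaction: one 5 min after compound meets Rango–importin beta, another 45 min after RanGTP-RCC1 (0.6 uM Ran, 0.2 uM RCC1, 2 mM GTP) is added. Only the second defines inhibition.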
GLA inh pH 4.5 = inhibitors of human alpha-galactosidase A at pH 4.5. 230,000 tested, under 10 active. purified enzyme, 4-MU-alpha-Gal fluorescence, pH 4.5. activity change, negative = inhibition, % at 105 µM. P06280; inconclusive = small, poorly fitted or top-dose-only inhibition, or a rising curve; inactive = flat fitted curve, though single readings scatter; no compound was filed as active;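 further: 0% = full activity with enzyme and -100% = basal without enzyme; dose as in the result columns while the protocol names 77 µM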
Rango-impB inh = Rango-importin beta binding inhibition. 340,000 compounds, 0.031% hits. Q14974. Rango CFP/YFP FRET sensor + importin beta, 45 min. Potency, µM (doses to about 92.2 µM), for inactives: at the highest dose inhibition of complex formation; active = rising FRET ratio curve, often small or poorly fitted; inconclusive = mostly compound fluorescence or quenching in the first reads; inactive = flat curves in all reads;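 further: potency means the concentration at half of the fitted maximal effect; 0% = DMSO wells and 100% = buffer wells lacking importin beta; nearly all actives have a fitted effect of over 15% in size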
Target sequence (Q14974 whole entry, looked up): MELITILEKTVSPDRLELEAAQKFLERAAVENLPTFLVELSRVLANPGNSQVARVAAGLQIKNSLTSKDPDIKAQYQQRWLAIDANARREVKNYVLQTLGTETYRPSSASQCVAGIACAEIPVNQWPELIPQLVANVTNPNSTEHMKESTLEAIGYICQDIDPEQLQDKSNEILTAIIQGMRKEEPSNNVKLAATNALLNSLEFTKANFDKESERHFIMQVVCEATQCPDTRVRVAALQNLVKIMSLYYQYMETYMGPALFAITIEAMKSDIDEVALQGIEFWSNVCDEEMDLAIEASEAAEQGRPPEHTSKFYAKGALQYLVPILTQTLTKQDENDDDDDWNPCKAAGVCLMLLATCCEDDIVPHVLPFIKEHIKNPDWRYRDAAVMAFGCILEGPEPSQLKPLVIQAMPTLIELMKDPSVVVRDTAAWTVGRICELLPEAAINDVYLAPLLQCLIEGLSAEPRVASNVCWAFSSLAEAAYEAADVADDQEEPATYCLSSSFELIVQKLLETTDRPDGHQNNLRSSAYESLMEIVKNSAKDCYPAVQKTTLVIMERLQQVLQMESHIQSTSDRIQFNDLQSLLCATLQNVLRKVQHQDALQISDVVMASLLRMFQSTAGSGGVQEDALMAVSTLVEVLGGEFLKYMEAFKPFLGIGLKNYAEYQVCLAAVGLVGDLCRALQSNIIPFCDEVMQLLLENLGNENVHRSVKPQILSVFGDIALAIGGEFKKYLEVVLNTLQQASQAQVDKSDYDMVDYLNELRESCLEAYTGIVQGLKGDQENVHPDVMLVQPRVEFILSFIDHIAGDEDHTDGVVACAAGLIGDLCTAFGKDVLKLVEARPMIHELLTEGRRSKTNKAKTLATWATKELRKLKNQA
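FRET biosensor Rango (snurportin 1 IBB between N-terminal EYFP and C-terminal Cerulean), 50 nM in PBS/1 mM DTT/0.02% Tween-20/0.1% BSA, preincubated 5 min RT with compound; 0.125 microM importin beta added, 45 min RT, CFP/YFP FRET ratio read.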
miR-21 reporter = miR-21 reporter, rising signal; HeLa miR-21 FLuc reporter, luciferase, 48 h; Potency, µM (series often up to 38.3 µM), for inactives: at the highest dose reporter change, positive = more light; 340,000 tested, under 10 active; active = well fitted rising curve with a large enough effect; inconclusive = small, poorly fitted or top-dose-only effect; inactive = no such curve, though single readings can be large or run the other way;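 further: % of control where 0% means no effect; miR-21 action dims this reporter so a rising signal means less miR-21 action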
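HeLa cells stably expressing CMV-driven firefly luciferase with a downstream miR-21 binding sequence, endogenously expressing miR-21, were treated with titrations (up to about 40uM final) for 48 hours at 37 degree Celsius. Luciferase luminescence was read after lysis.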
The depositor's hits bear a star; & = joins results of further samples.

Results for CCCNS(=O)(=O)c1cc(CN2C(=O)c3cccnc3C2=O)ccc1OC ?
Rango dissoc inh: -1%; Rango-impB inh: 1.0%; miR-21 reporter: 4%

How did CCOCCCn1c(=N)c(S(=O)(=O)c2ccccc2)cc2c(=O)n3cc(C)ccc3nc21 do in these assays?
Rango dissoc inh: inconclusive; Rango-impB inh: inconclusive; miR-21 reporter: -1%&-6%

Results for OCCOCCn1c(CCNc2nc(-c3ccc(F)cc3)cs2)nc2cc(C(F)(F)F)ccc21 ?
Rango dissoc inh: -1%; Rango-impB inh: -3.0%

What do the screens show for `COc1ccc(CCNC(=O)N2CCOCC2)cc1`?
Rango dissoc inh: -2%; GLA inh pH 4.5: -3; Rango-impB inh: 1.6%; miR-21 reporter: -10%

What do the screens show for `COc1ccc(-c2cc(C(=O)N(C)Cc3ccc(F)cc3)c3ccccc3n2)cc1OC`?
Rango dissoc inh: 12%; Rango-impB inh: 0.1%

How did CC1=C(C(N)=O)C(c2ccc(F)cc2)n2nc(CCCO)nc2N1 (centres undefined) do in these assays?
Rango dissoc inh: -1%; Rango-impB inh: 0.4%; miR-21 reporter: 3%

What do the screens show for `Cc1ccc(C)c(CSC2=NCCN2C(=O)Cc2ccc([N+](=O)[O-])cc2)c1`?
Rango dissoc inh: 1%; GLA inh pH 4.5: -14; Rango-impB inh: 3.7%; miR-21 reporter: 6%

Results for CCCc1nc(SCC(=O)Nc2ccc(S(=O)(=O)N(C)C)cc2)c2ccccc2n1 ?
Rango dissoc inh: -14%; GLA inh pH 4.5: -2; Rango-impB inh: 0.3%; miR-21 reporter: -7%

Results for CCOC(=O)c1ccc(Nc2nc(N)c3cc(OC)c(OC)cc3n2)cc1 ?
Rango dissoc inh: 8%; Rango-impB inh: 5.7%; miR-21 reporter: -16%&-17%

Results for CCOC(=O)C1=C(CC)Nc2ccccc2N=C1NC(=O)c1cccc(S(=O)(=O)N2CCCC2)c1 ?
Rango dissoc inh: 0%; GLA inh pH 4.5: -2; Rango-impB inh: -2.5%; miR-21 reporter: -5%

What do the screens show for `Nc1nc(SCC(=O)Nc2ccc([N+](=O)[O-])cc2Br)n[nH]1`?
Rango dissoc inh: -6%; GLA inh pH 4.5: 3; Rango-impB inh: -0.2%; miR-21 reporter: -7%

How did O=S(=O)(c1cccs1)N1CCN(Cc2cccc(F)c2)CC1 do in these assays?
Rango dissoc inh: -13%; Rango-impB inh: -2.4%; miR-21 reporter: -4%

What do the screens show for `OCCNCc1ccc(OC2CCCC2)cc1`?
Rango dissoc inh: 5%; GLA inh pH 4.5: -5; Rango-impB inh: 6.8%; miR-21 reporter: -7%

What do the screens show for `COc1ccc(C(C(=O)NC2CCCC2)N(C(=O)c2snc(C(N)=O)c2N)c2cccc(O)c2)cc1` (centres undefined)?
Rango dissoc inh: -7%; Rango-impB inh: -1.2%; miR-21 reporter: -8%

What do the screens show for `Cc1ccccc1NC(=O)CCc1c(C)nn(-c2ccc(N3CCOCC3)nn2)c1C`?
Rango dissoc inh: 1%; Rango-impB inh: 0.2%; miR-21 reporter: -5%

What do the screens show for `Cc1cccc(NC(=O)C2CC(=O)n3cnnc3S2)c1` (centres undefined)?
Rango dissoc inh: -7%; GLA inh pH 4.5: -3; Rango-impB inh: 2.9%; miR-21 reporter: -1%

Results for Cc1cccc(N(CC(=O)NCc2ccco2)C(=O)CNS(=O)(=O)c2ccc(F)cc2)c1 ?
Rango dissoc inh: 1%; Rango-impB inh: -2.8%; miR-21 reporter: 2%

Results for O=C(c1cnn(C(=O)c2ccc(O)cc2)c1)c1ccccc1O ?
GLA inh pH 4.5: -1; miR-21 reporter: -5%

How did C=CCn1c(SCCOc2ccc(OC)cc2)nnc1C(C)NC(=O)c1ccc(OC)cc1 (centres undefined) do in these assays?
Rango dissoc inh: -26%; GLA inh pH 4.5: -7; Rango-impB inh: -4.1%; miR-21 reporter: -1%

Results for Cc1ccc(NC2=C(NCCO)C(=O)c3ccccc3C2=O)cc1 ?
Rango dissoc inh: 1%; GLA inh pH 4.5: 2; Rango-impB inh: -4.9%; miR-21 reporter: -39%

Results for CN(C)C(CNC(=O)c1ccc(NC(=O)c2cccs2)cc1)c1ccccc1 (centres undefined) ?
Rango dissoc inh: 8%; Rango-impB inh: 5.7%; miR-21 reporter: -9%

How did Cc1cc(C)c2c(N)c(C(=O)Nc3ccc([N+](=O)[O-])cc3)sc2n1 do in these assays?
Rango dissoc inh: 6%; Rango-impB inh: 0.9%; miR-21 reporter: -53%

What do the screens show for `FC(F)(F)c1nc(SCc2ccc(Cl)cc2Cl)n[nH]1`?
Rango dissoc inh: -8%; GLA inh pH 4.5: -2; Rango-impB inh: -1.5%; miR-21 reporter: -22%

Results for Cn1c(-c2ccc(F)cc2)cnc1SCC(=O)NNC(=O)Cc1ccccc1 ?
Rango dissoc inh: 0%; GLA inh pH 4.5: -3; Rango-impB inh: -0.8%; miR-21 reporter: 2%

Continued (3 carried over from the part before).
How did Cc1cc(C)c2c(N)c(C(=O)Nc3ccc([N+](=O)[O-])cc3)sc2n1 do in these assays?
Rango dissoc inh: 6%; Rango-impB inh: 0.9%; miR-21 reporter: -53%

What do the screens show for `FC(F)(F)c1nc(SCc2ccc(Cl)cc2Cl)n[nH]1`?
Rango dissoc inh: -8%; GLA inh pH 4.5: -2; Rango-impB inh: -1.5%; miR-21 reporter: -22%

Results for Cn1c(-c2ccc(F)cc2)cnc1SCC(=O)NNC(=O)Cc1ccccc1 ?
Rango dissoc inh: 0%; GLA inh pH 4.5: -3; Rango-impB inh: -0.8%; miR-21 reporter: 2%

How did O=C(O)c1cc(S(=O)(=O)N2CCCCC2)ccc1F do in these assays?
Rango dissoc inh: -8%; GLA inh pH 4.5: 12; Rango-impB inh: -1.6%; miR-21 reporter: -3%

How did O=C(C1CCCN(S(=O)(=O)c2ccc(F)cc2)C1)N(Cc1cccs1)C1CC1 (centres undefined) do in these assays?
Rango dissoc inh: 2%; GLA inh pH 4.5: 6; Rango-impB inh: 0.8%; miR-21 reporter: 14%

How did COc1ccc(/C=N/NC(=S)Nc2cc(S(=O)(=O)N3CCOCC3)ccc2N2CCOCC2)cc1O do in these assays?
Rango dissoc inh: -1%; GLA inh pH 4.5: -6; Rango-impB inh: 2.5%; miR-21 reporter: 29%

How did O=C(O)c1ccc2c(c1)C(=O)N(CCc1c[nH]c3ccccc13)C2=O do in these assays?
Rango dissoc inh: -15%; Rango-impB inh: 4.2%; miR-21 reporter: -23%

What do the screens show for `O=C(NC(=S)Nc1ccccc1N1CCN(C(=O)c2ccccc2)CC1)c1cccs1`?
Rango dissoc inh: 8%; GLA inh pH 4.5: -4; Rango-impB inh: -0.1%; miR-21 reporter: 2%

How did COc1ccccc1N1C(=O)c2cccc3c(C(=O)O)ccc(c23)C1=O do in these assays?
Rango dissoc inh: 4%; GLA inh pH 4.5: -13; Rango-impB inh: -1.7%; miR-21 reporter: -2%

How did Cn1c(=O)c2c(nc(NC3CCCCC3)n2CC(O)COc2ccccc2)n(C)c1=O (centres undefined) do in these assays?
Rango dissoc inh: -9%; GLA inh pH 4.5: -15; Rango-impB inh: -4.9%; miR-21 reporter: -4%

How did CCOc1cc(C(=O)Nc2cc(C)ccc2OC)ccc1OCC(=O)N1CCCCC1 do in these assays?
Rango dissoc inh: -1%; GLA inh pH 4.5: -3; Rango-impB inh: -0.4%; miR-21 reporter: -1%

What do the screens show for `COc1ccc2c(c1)CCc1cn3ncc(C#N)c3nc1-2`?
Rango dissoc inh: -9%; GLA inh pH 4.5: 15; Rango-impB inh: inconclusive; miR-21 reporter: -6%

How did CSCCC(NC(=O)c1ccccc1Cl)C(=O)N1CCCCC1 (centres undefined) do in these assays?
Rango dissoc inh: 9%; Rango-impB inh: 3.2%

What do the screens show for `O=CN(CCNc1ccccc1)c1ccccc1`?
Rango dissoc inh: 1%; Rango-impB inh: -1.2%

How did C[C@H](CO)N1C[C@H](C)[C@@H](CN(C)Cc2ccc(Oc3ccccc3)cc2)Oc2ccc(NC(=O)Cn3cnnn3)cc2C1=O do in these assays?
Rango dissoc inh: 29%; Rango-impB inh: -1.9%

Results for COc1ccc(Cl)cc1-c1nc(SCC(=O)NC(C)C)n[nH]1 ?
Rango dissoc inh: 0%; GLA inh pH 4.5: 1; Rango-impB inh: 0.2%; miR-21 reporter: 2%

How did COc1ccc(OCC(=O)NNC(=O)c2ccc3c(=O)n4c(nc3c2)CCC4)cc1 do in these assays?
Rango dissoc inh: 1%; Rango-impB inh: -2.9%; miR-21 reporter: 3%

What do the screens show for `CCOCc1nnc(NC(=O)c2cc(Cl)ccc2OC)s1`?
Rango dissoc inh: 0%; GLA inh pH 4.5: 0; Rango-impB inh: 0.1%; miR-21 reporter: -11%

How did CCOc1ccc(-n2c(SCc3cc(=O)oc4cc(C)c(C(C)C)cc34)nnc2-c2cccnc2)cc1 do in these assays?
Rango dissoc inh: 10%; GLA inh pH 4.5: 1; Rango-impB inh: -2.2%; miR-21 reporter: 20%

What do the screens show for `CC(=C/c1ccccc1)/C=N/n1c(C)n[nH]c1=S`?
Rango dissoc inh: 1%; Rango-impB inh: -1.2%; miR-21 reporter: -25%

Results for COC(=O)C1C(=O)NCC1c1ccc(OC)cc1 (centres undefined) ?
Rango dissoc inh: -1%; GLA inh pH 4.5: -14; Rango-impB inh: -0.5%; miR-21 reporter: -2%

How did CCOC(=O)CNC(=O)N1CCC(CCOc2ccccc2)(C(=O)OCC)CC1 do in these assays?
Rango dissoc inh: 6%; Rango-impB inh: 1.3%; miR-21 reporter: 1%

Results for N#Cc1nc(-c2cccs2)oc1N1CCOCC1 ?
Rango dissoc inh: -4%; GLA inh pH 4.5: inconclusive; Rango-impB inh: 5.4%; miR-21 reporter: -16%

Results for CCCCN(CC)C(=O)Cc1ccccc1OC ?
Rango dissoc inh: -17%; GLA inh pH 4.5: -26; Rango-impB inh: 4.0%; miR-21 reporter: -2%

What do the screens show for `Cc1sc2nc(SCC(=O)NCCCO)n(-c3ccccc3)c(=O)c2c1C`?
Rango dissoc inh: 2%; Rango-impB inh: 1.6%; miR-21 reporter: -5%

What do the screens show for `CS(=O)(=O)c1ccc(NC(=O)CN2C(=O)C3CCCCC3C2=O)cc1` (centres undefined)?
Rango dissoc inh: 0%; Rango-impB inh: 2.5%; miR-21 reporter: -1%

What do the screens show for `O=S1(=O)c2ccccc2OC(COCc2ccccc2)CN1Cc1ccccc1` (centres undefined)?
Rango dissoc inh: -13%; Rango-impB inh: inconclusive

How did Cc1ccc(-c2[nH]ncc2/C=N/n2c(COc3ccccc3)nc3ccccc3c2=O)cc1 do in these assays?
Rango dissoc inh: -12%; GLA inh pH 4.5: 3; Rango-impB inh: -1.4%; miR-21 reporter: 1%

Results for COc1ccc(S(=O)(=O)N2CCC(C(=O)NC3(C)CCS(=O)(=O)C3)CC2)cc1OC (centres undefined) ?
Rango dissoc inh: 1%; Rango-impB inh: 1.1%

Results for CCc1ccc(OC)c(-c2csc(N)n2)c1 ?
Rango dissoc inh: 4%; GLA inh pH 4.5: 4; Rango-impB inh: -0.2%; miR-21 reporter: -4%

Results for C[C@@H]1C(=O)O[C@H]2[C@H]1CC[C@@]1(C)C(=O)C=C[C@@](C)(O)[C@H]21 ?
Rango dissoc inh: 9%; GLA inh pH 4.5: 2; Rango-impB inh: -0.3%; miR-21 reporter: -2%

How did CCCCC1=CC2=CC(=O)C(C)(OC(=O)CC)C(=O)C2=CN1Cc1ccccc1 (centres undefined) do in these assays?
Rango dissoc inh: inconclusive; GLA inh pH 4.5: -4&-4; Rango-impB inh: inconclusive; miR-21 reporter: 0%

What do the screens show for `CN(C)S(=O)(=O)c1ccc(NC(=S)NC(=O)Cc2ccccc2)cc1`?
Rango dissoc inh: -10%; GLA inh pH 4.5: -1; Rango-impB inh: 3.2%; miR-21 reporter: 3%

What do the screens show for `CC(C)(C)CN1C(N)=NC[C@@H]1Cc1ccc(O)cc1`?
Rango dissoc inh: -12%; GLA inh pH 4.5: 2; Rango-impB inh: 0.9%; miR-21 reporter: -1%

Results for CC(C)C(C)(C#N)NC(=O)CSc1nc2scc(-c3ccccc3)c2c(=O)[nH]1 (centres undefined) ?
Rango dissoc inh: -15%; GLA inh pH 4.5: -3; Rango-impB inh: -6.0%; miR-21 reporter: 3%

A portion of the library. The share of hits here may be higher or lower than overall.
